TAR Tat displ = TAR RNA-Tat peptide displacers, HIV-1, primary screen, biochemical, FRET, FAM/TAMRA-labeled Tat; HIV-1 TAR RNA, Tat peptide displacement FRET; active compounds read high; z-score (test concentration not listed); 0.6% of 100,000 active; AID 1259389, 2018;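 note: score is relative to mean and SD of negative controls; some compounds called inactive have numbers as strong as hits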
CDC25B CDK2 inh = primary biochemical HTRF screen for blockers of M-phase inducer phosphatase 2 binding to CDK2/cyclin A; HTRF CDC25B-CDK2/CyclinA binding, anti-His/anti-Flag; active compounds read high; z-score (test concentration not listed); 0.72% of 94,000 active;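 note: score is relative to mean and SD of negative controls; strong numbers were not always called active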
* marks the source's active call; other numbers are inactive results; . = no result given.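 Rule for the calls: active = z-score from 3 up in half or more of its runs; inactive = the rest.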 No enrichment for hits; 0.9% or so of the library scored in one or more.

Preview:
SMILES	TAR Tat displ	CDC25B CDK2 inh
Cc1ccc(C(=O)c2cn(Cc3cccc(F)c3)c3nc(C)ccc3c2=O)cc1	-0.8	-8.3
O=C(O)CCCNC(=O)c1cccs1	-0.55	-0.56
CC(C)CN1Cc2cccc(C(=O)O)c2C1=O	0.35	-0.19
O=S(=O)(c1ccc(-c2nnc(C3CC3)o2)s1)N1CCc2ccccc2C1	1.6	.
Cc1cc(F)ccc1NS(=O)(=O)c1ccc(-c2ccc(=O)[nH]n2)s1	0.18	.

Main list, from the start:
SMILES	TAR Tat displ	CDC25B CDK2 inh
Cc1ccc(C(=O)c2cn(Cc3cccc(F)c3)c3nc(C)ccc3c2=O)cc1	-0.8	-8.3
O=C(O)CCCNC(=O)c1cccs1	-0.55	-0.56
CC(C)CN1Cc2cccc(C(=O)O)c2C1=O	0.35	-0.19
O=S(=O)(c1ccc(-c2nnc(C3CC3)o2)s1)N1CCc2ccccc2C1	1.6	.
Cc1cc(F)ccc1NS(=O)(=O)c1ccc(-c2ccc(=O)[nH]n2)s1	0.18	.
CCOC(=O)C(NC(C)=O)(Nc1ccc(C(O)(C(=O)OCC)C(F)(F)F)cc1C)C(F)(F)F (configuration not stated)	.	-1.1
COC(=O)C1(C)Oc2cc(Cl)ccc2NC1=O (configuration not stated)	.	-1.4
c1ccc(CCNc2cc(-c3ccccc3)nc3nncn23)cc1	-0.54	0.22
O=C(Cn1c(=O)oc2cc(S(=O)(=O)N3CCCCCC3)ccc21)N1CCCCCC1	.	-2
CCCN/C(=C/C(=S)Nc1cccc2ccccc12)c1ccc(OC)cc1	.	0.13
COC(=O)C1=C(C)NC(C)=C(C(=O)OC)C1c1sccc1C	.	-2
CCS(=O)(=O)N1CCC2(CC1)OC(=O)C(C)=C2C(=O)Nc1cc(F)ccc1F	0.86	.
Cc1ccc(NS(=O)(=O)c2ccc(CN3C(=O)c4cccnc4C3=O)s2)c(C)c1	-1.6	.
O=C(NCC(O)COc1ccc([N+](=O)[O-])cc1)Nc1ccccc1 (configuration not stated)	.	0.86
O=C(COC(=O)CN1C(=O)C(=O)c2ccccc21)NCc1ccco1	2	-0.89
Cc1c(Br)c([N+](=O)[O-])nn1CC(N)=O	-0.43	0.35
Cc1nnc(N2C(=O)C(O)=C(C(=O)c3cccs3)C2c2ccc(Br)cc2)s1 (configuration not stated)	.	-5.2
Cc1cccc(N2CCN(C(=O)CN3C(=S)NC(C)(C)CC3C)CC2C)c1 (configuration not stated)	.	-1.2
CC(=O)SCC(C)C(=O)O (configuration not stated)	.	-1.9
Fc1ccc(C2Oc3ccccc3C3=C2C(c2ccccc2)n2ncnc2N3)cc1 (configuration not stated)	.	-1.2
Cc1nnc2c(NCCCN3CCN(Cc4ccccc4)CC3)nc3ccccc3n12	1.2	-0.81
CC1CCCC(Nc2ncnc3onc(-c4ccc(Cl)cc4)c23)C1C (configuration not stated)	0.83	-1.7
Cc1nc2c(ncn2-c2ccccc2)c(=O)n1NC(=O)CN1CCCC1	.	-0.71
Cc1ccccc1-n1nnc(-c2nc(-c3ccccc3F)no2)c1C	1	.
CC1CSc2ccc(S(=O)(=O)NCc3ccc(Br)cc3)cc2NC1=O (configuration not stated)	1.3	.
Next section:
SMILES	TAR Tat displ	CDC25B CDK2 inh
CCOC(=O)NC(N1CCCCC1)(C(F)(F)F)C(F)(F)F	.	-0.96
CCCN1C(=O)C(O)(CC(=O)c2ccc(C)s2)c2cc(Br)ccc21 (configuration not stated)	0.87	1.3
COC(=O)CN1C(=O)COc2ccc(S(=O)(=O)N3CCOCC3)cc21	1.9	.
CCOCc1cc(=O)[nH]c(SCc2ccccc2)n1	1.1	1.4
O=C(O)/C=C/C(=O)Nc1cccc(C(=O)O)c1	.	-1.1
CC(=O)N1c2ccc(S(=O)(=O)N(C)CC(=O)NCc3ccco3)cc2CC1C (configuration not stated)	-0.17	.
Fc1ccc(N2CCN(c3c4c(nc5ncnn35)CCCC4)CC2)cc1	0.72	.
CN1CC(=O)NC1=NC(=O)C1CCCN(S(=O)(=O)c2ccc3c(c2)oc(=O)n3C)C1 (configuration not stated)	.	-0.61
CN1C(=O)C(C)(C)c2cc(S(=O)(=O)NCCc3ccco3)ccc21	-0.32	.
c1ccc(-c2nnc3ccc(SCc4ccccn4)nn23)cc1	.	-1.4
O=C1c2ccccc2C(=O)N1C1CCN(Cc2ccccc2)CC1	.	-1.8
Cc1ccc2nc(CN3CCN(C(=O)NC4CCCC4)CC3)oc2c1	1.6	.
Cc1ccc(-c2c[n+]3c(n2-c2ccccc2)SCC3)cc1	0.58	-1.7
Cc1ccc(S(=O)(=O)N2CCN(c3cc(-c4ccccc4)ncn3)CC2)c(C)c1	2.2	.
COCCN1CCN(C2CCN(C(=O)NC3CCCC3)CC2)C(=O)C1=O	0.38	.
Cc1nn(C(C)C(=O)NC2CCCCC2C)c2ccccc12 (configuration not stated)	0.3	-1.4
CC1CCCN(c2nn3c(=O)c(C(=O)NCCN(C)C4CCCCC4)cnc3s2)C1 (configuration not stated)	-0.62	.
O=C(CCCC(=O)c1ccccc1)NC(Cc1ccccc1)c1ccccc1 (configuration not stated)	1.5	.
O=C(Cc1ccccc1F)Nc1nnc(C2CC2)s1	.	-1.8
O=C(CN1C(=O)CSc2ccc(S(=O)(=O)N3CCCC3)cc21)NCc1ccco1	.	-2.1
CCOC(=O)Cn1c(=O)oc2cc(S(=O)(=O)NC3CCCC(C)C3C)ccc21 (configuration not stated)	-2.7	-0.65
CCN(C(=O)NCc1noc2ccc(C)cc12)c1cc(C)ccc1C	-0.13	.
O=C(NNC(=O)c1ccc[nH]1)c1cccc(C(F)(F)F)c1	.	-2.3
Cc1noc2ncnc(NC(C)CCc3ccccc3)c12 (configuration not stated)	0.31	.
O=C1c2cccnc2C(=O)N1Cc1ccc(F)cc1S(=O)(=O)N1CCc2ccccc2C1	-0.3	.
The results go on:
SMILES	TAR Tat displ	CDC25B CDK2 inh
CN(C)c1oc(-c2ccc(Cl)cc2)nc1S(=O)(=O)c1ccc(Cl)cc1	0.57	0.33
CC1(O)CC(=O)C(C(=O)OCc2ccccc2)C(c2cccnc2)C1C(=O)OCc1ccccc1 (configuration not stated)	.	1.9
C=CCN(CC=C)C(=O)C1c2ccccc2Oc2ccccc21	.	-2.1
Cc1cc(-c2ccc(C)c(S(=O)(=O)Nc3ccc(F)c(F)c3)c2)on1	0.89	.
CN1CCN(C(=O)C2CCN(S(=O)(=O)c3cnc[nH]3)CC2)CC1	2.5	-1.8
CCC1(CC)Cc2ccccc2-c2[nH]c(=O)n(C)c(=O)c21	0.14	-1.4
C/C(=C\C(=O)Nc1cscc1C)C(=O)O	.	-0.45
C#Cc1cccc(-n2nnc(C(=O)OCC)c2C)c1	.	-2.2
COc1ccc2c(c1)c(N1CCCC1=O)c(C(=O)NCCN(C)C)n2C	0.26	.
Cn1c(=O)n(C)c2cc(S(=O)(=O)Nc3cccc(-c4nnc(-c5ccccc5)o4)c3)ccc21	-1.9	.
Cc1cc(O)c2c(c1)Cc1cccc(O)c1C2=O	7.7*	.
Clc1c(C(Cl)(Cl)Cl)nsc1N1CCCCC1	.	3.9
Cc1ccc(NS(=O)(=O)c2cc(Br)cnc2N)cc1Cl	1.3	-1.6
CN(C)CCN(Cc1ccccc1)C(=O)C(C(=O)c1ccc(Br)cc1)n1ccccc1=O (configuration not stated)	0.72	-1.8
Cc1nc2ccc(S(=O)(=O)NCC(=O)N3CCCC3)cc2s1	-0.82	0.09
CC1(C)C=C(c2ccc(O)cc2)CC(C)(C)N1	1.5	-1
Cc1ccc(S(=O)(=O)N2CCN(Cc3ccc4c(c3)OCO4)CC2)cc1	-2.1	-1.1
O=C(CSc1nc2ncccc2[nH]1)N1CCc2ccccc2C1	1.7	15*
COc1ccc(OC)c(NC(=O)CSc2nc3c(c(=O)[nH]2)CCC3)c1	2.6	0.18
CSC1=N/C(=C\c2ccccc2OCc2ccccc2)C(=O)S1	-0.39	2
O=C(COc1ccc(F)cc1)Nc1cc(F)c2nc(N3CCOCC3)ccc2c1	-0.31	.
Cc1cc2oc(C(=O)NCC(c3ccco3)N3CCCC3)cc(=O)c2cc1Cl (configuration not stated)	0.29	-2.1
Cc1csc(NC(=O)C(Cc2ccccc2)NS(=O)(=O)c2ccc3c(c2)CCC(=O)N3)n1 (configuration not stated)	.	-1.2
O=C(c1ccc([N+](=O)[O-])cc1)C1C(=O)N(c2ccccc2)C(=O)N(c2ccccc2)C1=O	.	0.61
O=c1[nH]c(-c2ccccc2)nc2c1CCC2	0.27	.

Looked up by compound from the entries so far, 7 records:
SMILES	TAR Tat displ	CDC25B CDK2 inh
O=C(COc1ccc(F)cc1)Nc1cc(F)c2nc(N3CCOCC3)ccc2c1	-0.31	.
C#Cc1cccc(-n2nnc(C(=O)OCC)c2C)c1	.	-2.2
C=CCN(CC=C)C(=O)C1c2ccccc2Oc2ccccc21	.	-2.1
Cc1cc(-c2ccc(C)c(S(=O)(=O)Nc3ccc(F)c(F)c3)c2)on1	0.89	.
O=C(c1ccc([N+](=O)[O-])cc1)C1C(=O)N(c2ccccc2)C(=O)N(c2ccccc2)C1=O	.	0.61
CCC1(CC)Cc2ccccc2-c2[nH]c(=O)n(C)c(=O)c21	0.14	-1.4
CC1(C)C=C(c2ccc(O)cc2)CC(C)(C)N1	1.5	-1

Next structures follow:
SMILES	TAR Tat displ	CDC25B CDK2 inh
COc1ccc(C2NC(c3ccc(OC)cc3)C(C)C(=O)C2C)cc1 (configuration not stated)	.	-1.8
COc1ccc(CNS(=O)(=O)c2ccc(-c3cc(C)no3)s2)cc1OC	0.06	.
Cc1cc(C)c2c(-n3cccc3)nn(CCCC(=O)NC3CC3)c2n1	0.79	.
COc1ccc(Nc2cc(-c3ccccc3)nc3nncn23)cc1OC	1.4	-0.16
O=C(CSc1nnc(-c2ccco2)n1-c1ccccc1)c1ccc2c(c1)Cc1ccccc1-2	.	-12
Cc1ccc(-c2ccccc2)n1-c1cccnc1	1.1	17*
COc1ccc(/C=N/n2nnc3c(sc4nc(C)cc(C)c43)c2=O)cc1	.	-1.8
COC(=O)Cn1c(=O)c2c(nc3n2CCN3Cc2ccco2)n(C)c1=O	1.9	.
COC(=O)/C(C#N)=C/N(C)C	.	-2.3
CO[C@@H]1[C@@H](O[C@@H]2O[C@H](C)[C@@H](O[C@H]3C[C@@](C)(O)[C@H](O)[C@H](C)O3)[C@H](N(C)C)[C@H]2O)[C@@H](CC=O)C[C@@H](C)[C@@H](O[C@H]2CC[C@H](N(C)C)[C@@H](C)O2)/C=C/C=C/C[C@H](C)OC(=O)C[C@H]1O	0.75	.
Cc1nc(-c2ccc(S(=O)(=O)NCCSCc3ccco3)cc2)co1	0.27	.
O=C(NCc1ccc(Cl)cc1)C1CCCN(c2nn3c(=O)c4c(nc3s2)CCCC4)C1 (configuration not stated)	1.1	.
Cc1cc(-c2ccccc2)n2nc(C)cc2n1	1.2	0.55
CCOC(=O)c1cc(OCCOC)c(OCCOC)cc1NS(=O)(=O)c1cn(C)cn1	.	-2
COC(=O)c1ccc(C(=O)OC)c(NC(=O)N2CCC3(CC2)Nc2cc(F)ccc2-n2cccc23)c1	-0.85	.
CCc1cc2c(N3CCN(c4nnc(CC)s4)CC3)ncnc2s1	2.1	.
Cc1nc2nc(NC(=O)c3ccncc3)nn2c(C)c1Cl	1.3	-1.3
Cc1cc2c3c([nH]c2cc1S(=O)(=O)N1CCC(c2ccccc2)C1)CC(C)(C)CC3=O (configuration not stated)	0.71	.
C=CCN1/C(=C/c2cccc[n+]2C)Sc2ccccc21	6.7*	0.99
CC1CSc2ccc(S(=O)(=O)N3CCOCC3)cc2NC1=O (configuration not stated)	1.1	.
CCCN(Cc1ccc(C)cc1)Cc1cc(=O)c2cc(C)ccc2[nH]1	-0.86	.
COc1ccc(C2=C(C)C(N3CCN(c4cc(C)ccc4C)CC3)=NS2(=O)=O)cc1	-0.5	-2.1
O=C(CN1C(=O)c2cccnc2Oc2ccccc21)NCCCN1CCCC1=O	2.5	.
O=C1c2ccccc2C(=O)C1(Nc1ccc2c(c1)OCO2)c1ccccc1	0.76	-1.5
Cc1nn(S(=O)(=O)c2ccc(Br)cc2)c(C)c1S(=O)(=O)N(C)c1ccccc1	0.86	.
Next structures follow:
SMILES	TAR Tat displ	CDC25B CDK2 inh
CCOc1cc(/C=C2\N=C(c3ccccc3F)OC2=O)ccc1OCc1ccc([N+](=O)[O-])cc1	.	-8.1
O=C(Nc1ccc(F)cc1)N1CC2CCCN2c2ccccc21 (configuration not stated)	-2.2	.
COC(=O)CCCCCN1C(=O)S/C(=C/c2ccc(OC)cc2)C1=S	.	-0.44
O=C(NCc1cccs1)c1ccccc1	.	-0.96
Cn1cc(Br)c(-c2cccc(NC(=O)c3nccnc3C(=O)O)c2)n1	.	-0.28
CCNc1cc(N2CCCC2)c2noc3c2c1C(=O)c1ccccc1-3	2.3	-1.5
COCC(C)Nc1ncnc2c1cnn2-c1ccc(F)cc1 (configuration not stated)	0.43	.
C=CCn1c(=O)c2ccc(C(=O)NCC(C)C)cc2n2c(=O)[nH]nc12	2.4	-1.1
COc1ccc(Cl)cc1NC(=O)Nc1noc2c1COc1ccccc1-2	-0.45	-0.47
Cc1nc2c(ccc3nc(NC(=O)c4ccc(C(C)(C)C)cc4)sc32)s1	.	0.03
Cc1cc2c(cc1S(=O)(=O)Nc1ccccc1Br)OCCN2C	1.2	.
CN=C(C)/C(C(=O)OC)=C(\O)c1cccs1	.	-2.1
CCCn1c(Cn2ccnc2C)nc2cc(NC(=O)CC)ccc21	0.91	-1.1
O=C1Nc2ccc(S(=O)(=O)Nc3ccc(O)c(-c4c(O)ccc5ccccc45)c3)c3cccc1c23	0.47	-0.96
